VACV Venus inh: inhibitors of vaccinia virus (Venus reporter); Vaccinia virus Venus reporter expression, fluorescence; Potency, µM (top dose mostly 36.5 µM), inactives show at the top dose activity change, negative = inhibition, actives largely listed as inhibitors; 330,000 compounds, 0.46% hits; AID 720580; active means well fitted inhibition curve with a large enough effect; inconclusive means small, poorly fitted or top-dose-only effect; inactive means no such curve, though single readings can be large or run the other way; tested in A549 cells; note: nearly all actives have a fitted effect of over 30% in size; inactives centre near -10
VACV mCherry inh: inhibitors of vaccinia virus infection (mCherry reporter signal). Vaccinia virus mCherry reporter infection, fluorescence; about a quarter of the inactives have no number. Potency, µM (series often up to 36.5 µM), for the others: top-dose activity change, negative = inhibition, actives largely listed as inhibitors. 310,000 compounds, 0.63% hits. AID 720579; active = well fitted inhibition curve with a large enough effect; inconclusive = small, poorly fitted or top-dose-only effect; inactive = no such curve, though single readings can be large or run the other way; tested in A549 cells; note: nearly all actives have a fitted effect of over 35% in size; inactives centre near -10
The depositor's hits bear a star; i = inactive; u = inconclusive; x = not tested or not shown; & = joins results of further samples; [ ] = remark or other dose. % is set by controls: 0 for no effect and ±100 for the full control effect; potency is the fitted concentration of half-maximal effect.

SMILES	VACV Venus inh	VACV mCherry inh
Cc1cc(C(=O)N/N=C2\CCCC(C)C2)n[nH]1 (configuration not stated)	-9%	u
CCOC(=O)[C@]12CCC=C1N(Cc1ccco1)C(=O)[C@H](CC(=O)N1CCCC1)C2	2%	6%
CCOC(=O)CNC(=O)N1CCCC(N(C)CCc2ccccc2)C1 (configuration not stated)	-2%	u
Cc1ccccc1C(=O)Nc1ccnn1C1CCN(Cc2ccncc2)CC1	-1%	-9%
NC(=O)CC(NC(=O)c1ccccc1)c1ccc(NCCCN2CCCC2=O)c([N+](=O)[O-])c1 (configuration not stated)	3%	-14%
N#Cc1c([N+](=O)[O-])cc([N+](=O)[O-])cc1S(=O)(=O)Cc1ccccc1	u	u
CC(C)(C)C(=O)NCc1ccc(C(=O)CSc2nnc3n2CCCCC3)s1	-4%	-1%
CCCCn1c(N)c(NCc2ccccc2)c(=O)[nH]c1=O	-5%	-1%
Cc1ccc(-n2nc(C)c3c2OC(N)=C(C#N)C3c2ccc(C)o2)cc1 (configuration not stated)	-3%	-9%
COc1ccc(Cl)cc1S(=O)(=O)n1ccnc1	-12%	-4%
CC(=O)Nc1ccc2nc(-c3ccco3)[nH]c2c1	5%	-13%
CCOC(=O)C1CCN(C=C2C(=O)N(C)C(=S)N(C)C2=O)CC1	-5%	-18%
O=S1(=O)CCOCCCN1Cc1ccccc1	-8%&-11%	-13%
O=C1N/C(=N\N=C\c2ccco2)SC1Cc1ccc(F)cc1 (configuration not stated)	-6%	-2%
O=C(Nc1nccs1)c1cc(-c2ccccc2)nn1-c1ccccc1	-7%	i
COc1ccc(S(=O)(=O)Nc2cccc3c2O[C@H](CN(C)S(=O)(=O)c2ccccc2)[C@@H](C)CN([C@H](C)CO)C3=O)cc1	-14%	i
Cc1ccc(CCn2c3c(c4ccccc42)CN(C)CC3)cn1	-2%	-12%
CN(C)C(=O)c1ccc(NS(=O)(=O)c2ccc3c(c2)OCCO3)cc1	-16%	-4%
CN(C)C(=O)CN1CCN(Cc2cn(C)nc2-c2ccc3c(c2)OCCO3)CC1	-12%	-3%
N#Cc1ccc(CN2CCN(C(=O)CNC(=O)Cc3ccccc3)CC2)cc1	-16%	i
CCCCCC(=O)Nc1nc(C)c(-c2csc(Nc3cc(OC)ccc3OC)n2)s1	u	u
O=C(CSc1nnc(-c2ccc(F)cc2)n1-c1ccccc1)NCCN1C(=O)CSC1=O	1%	-11%
COc1ccc(Cl)cc1NC(=O)CCS(=O)(=O)c1cccc2nonc12	-23%	i
CC(=O)NC(=S)Nc1ccc(NC(=O)COc2ccc(C(C)C)cc2)cc1	-5%	-8%
Cc1ccc(C)c(S(=O)(=O)N/N=C/c2ccc(N(C)C)cc2)c1	-3%	-19%
CCC(=O)OCC(=O)c1c(N)n(Cc2ccccc2)c(=O)n(C)c1=O	-18%	x
COc1ccc(N2CCC(CNC(=S)Nc3cc(C)cc(C)c3)C2)cc1 (configuration not stated)	-28%	u
O=C(c1ccc2c(c1)C(=O)N(c1ccc(Cl)cc1)C2=O)N1CCN(c2ccccn2)CC1	-11%	-14%[1.46 µM]
Cc1ccc(S(=O)(=O)N[C@@H](Cc2ccccc2)C(=O)N2CCC(C(=O)N[C@@H](CCC(N)=O)C(=O)O)CC2)cc1	-2%	-14%
CC12CCC3C(CC3(C)C)C(C)(CCC1=O)O2 (configuration not stated)	4%	-6%
Cc1c(CNC2CCCCC2)c(C(=O)O)c(C)n1Cc1ccc(F)cc1	-1%	-1%
C=CCOc1ccc(CNC(C)(C)C)cc1OC	-7%	-20%[1.46 µM]
O=C(CN1C(=O)CCC1=O)Nc1nc(-c2nc3ccccc3s2)cs1	-8%	-16%
CCOc1ccc(-c2nn(CC(=O)NC3CCCCC3)c3c2cnc2ccc(C)cc23)cc1	12%	1%
CCC(CO)Oc1cc(NCc2ccccc2OC)c2ncn(C(C)C)c2c1 (configuration not stated)	-19%	-27%
Cc1ccc(-n2nc3ccc(N)cc3n2)cc1	-5%	-10%
O=C(O)c1cn(-c2ccc(F)cc2)c2cc(N3CCNCC3)c(F)cc2c1=O	-11%&-5%	-2%
CC1=NN(c2nc(-c3ccc(C)cc3)cs2)C(=O)C1N=Nc1ccccc1O (configuration not stated)	438%[activator]	1%
O=C(CC(NS(=O)(=O)c1ccc(Cl)cc1)c1ccco1)NCc1cccnc1 (configuration not stated)	2%	x
CN(C)S(=O)(=O)c1ccc(C(=O)N2CCN=C2SCc2cccnc2)cc1	-14%	-7%
COc1ccc(-n2c(SCC(=O)NCC3CCCO3)nc3ccccc32)cc1 (configuration not stated)	-25%	-4%
COc1ccc(Nc2nnc(SCC(=O)N(CC(C)C)C3CCS(=O)(=O)C3)s2)cc1 (configuration not stated)	-17%	-28%
COc1ccccc1C(CNC(=O)c1cc(C)nc2ccccc12)N(C)C (configuration not stated)	15%	6%
COc1cc(C=O)c(Br)cc1OCC(=O)NCCc1ccccc1	-13%	-9%
Nc1nc(NC(=O)c2ccccc2Cl)nn1-c1ccccc1	-12%	i
C[C@]12CC[C@H]3[C@@H](CCC4=CC(=O)CC[C@@]43C)[C@@H]1CC[C@@H]2O	-13%&-4%	i
CCOC(=O)Nc1ccc2c(c1)N(C(=O)CN1CCN(CCO)CC1)c1ccccc1CC2	-11%	i
O=C(CN(Cc1ccccc1)S(=O)(=O)c1ccc2c(c1)OCCO2)N/N=C/c1ccc(F)cc1	-18%	-3%
Cc1cccc(NC(=O)CN(CC2CCCO2)C(=O)c2cc3ccccc3o2)c1C (configuration not stated)	-15%	-20%
CC(=O)OC1C(=O)N(Cc2ccccc2)C1c1ccc(C)cc1 (configuration not stated)	-6%	-25%
O=C1CCC[C@@H]2[C@@H](Cc3ccccc3)[C@@H](Nc3ccccc3)C[C@@H]3CCN1[C@@H]32	-9%	i
O=C(NC1CCCC1)c1cccnc1N1CCCCCC1	-6%	-16%
CCOc1ccc(C(=O)/C=C/c2ccccc2C(F)(F)F)cc1	5%	-14%
CCN(CC(=O)Nc1c(F)cccc1F)C(=O)CCc1ccc(OC)cc1	-7%	-11%
COc1ccc(C)cc1NC(=O)Nc1cnccn1	-22%	-7%
COc1cccc(/C=C2/SC(=O)N(C)C2=O)c1OCc1ccc(C(=O)O)cc1	-13%	i
CC1(C)CC(=O)c2cc(OCC(=O)NCCN3CCOCC3)ccc2O1	-8%	-11%
CCOC(=O)C1CCN(C(=O)COC(=O)c2ccc3[nH]c4c(c3c2)CCCC4)CC1	-1%	i
Nc1ncnc2c1ncn2[C@@H]1O[C@H](CNC(=O)[C@H](N)Cc2cscn2)[C@@H](O)[C@H]1O	0%	-12%
O=S1(=O)N=C(N=Nc2c(O)[nH]c3ccccc23)c2ccccc21	-4%	i

The list continues:
SMILES	VACV Venus inh	VACV mCherry inh
CCOC(=O)Cc1csc(NC(=O)CSc2nnc(C)n2C)n1	-9%	-12%
Cc1ccc(C(=O)N2CCN(c3ccc4c(c3)C3CC4CCN3C(=O)OCc3ccccc3)CC2)cc1 (configuration not stated)	-29%	-18%
CCCCNCc1nc2ccccc2c(=O)[nH]1	-14%	-8%
CCOC(=O)c1c(NC(=O)CN2CCOCC2)sc2c1CCCC2=O	-14%	-22%
Cc1c(NC(=O)NC(=O)c2ccc(F)cc2)c(=O)n(-c2ccccc2)n1C	-13%	x
O=C1C(Cc2ccccc2)Nc2ncnc(N3CCN(c4ccccc4)CC3)c2N1Cc1ccc(Cl)cc1 (configuration not stated)	-28%	-10%
CCOC(=O)C(C)Sc1nnc2cc(C)c3ccccc3n12 (configuration not stated)	-17%	-12%
N#CC1=C(N)OC2=C(C(=O)CCC2)C1c1ccsc1 (configuration not stated)	1%	-4%
CCN=C1S/C(=C\c2ccc(Sc3ccc(Cl)cc3)o2)C(=O)N1CC	-14%	-2%
CC1CCN(CCCOc2ccc(Cl)cc2Br)CC1	-16%	-8%
CC(=O)Nc1ccccc1-c1nc2ccccc2n(C(C)C(=O)Nc2cccc(C)c2C)c1=O (configuration not stated)	-10%	i
c1coc(-c2ncc[nH]2)c1	-21%	x
COc1cc2c3cc1Oc1cc(ccc1O)CC1c4c(cc(OC)c(O)c4Oc4ccc(cc4)CC3N(C)CC2)CC[N+]1(C)C (configuration not stated)	4%	-11%
COc1cc2c(cc1OC)CN(CC(=O)Nc1ccc3c(c1)OC(F)(F)O3)CC2	2%	-14%
Cc1ccc2nc3c(c(C(=O)O)c2c1)CCC3	-5%	i
CCCNC(=O)C1CC(=O)N(c2ccc(OCC(=O)Nc3cc(C)cc(C)c3)cc2)C1 (configuration not stated)	-9%	-3%
CCOc1ccc(NC(=O)CN(C)C(=O)CCNC(=O)c2ccc(Br)cc2)cc1OCC	-21%	-25%
CCN1CCN(C(=O)C2CCN(C(=O)c3cc4sccc4n3CC)CC2)CC1	-3%	i
CC(=O)Nc1ccc(S(=O)(=O)N2CCSC2)cc1	-5%	i
Nc1ccccc1SCC(=O)Nc1ccc(N2CCOCC2)cc1	-12%	i
COc1ccc(CNC(=O)c2cc3c(=O)n4cccc(C)c4nc3s2)cc1	2%	-7%
CCc1ccc(-c2nc(CS(=O)CC(=O)NCc3ccc(F)cc3)c(C)o2)cc1 (configuration not stated)	-5%	-2%
Cc1ccc(C)c(S(=O)(=O)N2CCN(C(=O)C3CCN(C(=O)c4ccc(F)cc4)CC3)CC2)c1	-28%	-13%
CC(C)c1ccc(-c2nnc3n(CCc4ccccc4)c(=O)c4ccccc4n23)cc1	-9%	-26%
CC(C)NS(=O)(=O)c1ccc(CCC(=O)Nc2ccc3c(c2)OCCO3)cc1	-7%	-13%

22 neighbouring records from above:
SMILES	VACV Venus inh	VACV mCherry inh
CCOC(=O)Cc1csc(NC(=O)CSc2nnc(C)n2C)n1	-9%	-12%
Cc1ccc(C(=O)N2CCN(c3ccc4c(c3)C3CC4CCN3C(=O)OCc3ccccc3)CC2)cc1 (configuration not stated)	-29%	-18%
CCCCNCc1nc2ccccc2c(=O)[nH]1	-14%	-8%
CCOC(=O)c1c(NC(=O)CN2CCOCC2)sc2c1CCCC2=O	-14%	-22%
Cc1c(NC(=O)NC(=O)c2ccc(F)cc2)c(=O)n(-c2ccccc2)n1C	-13%	x
O=C1C(Cc2ccccc2)Nc2ncnc(N3CCN(c4ccccc4)CC3)c2N1Cc1ccc(Cl)cc1 (configuration not stated)	-28%	-10%
CCOC(=O)C(C)Sc1nnc2cc(C)c3ccccc3n12 (configuration not stated)	-17%	-12%
N#CC1=C(N)OC2=C(C(=O)CCC2)C1c1ccsc1 (configuration not stated)	1%	-4%
CCN=C1S/C(=C\c2ccc(Sc3ccc(Cl)cc3)o2)C(=O)N1CC	-14%	-2%
CC1CCN(CCCOc2ccc(Cl)cc2Br)CC1	-16%	-8%
CC(=O)Nc1ccccc1-c1nc2ccccc2n(C(C)C(=O)Nc2cccc(C)c2C)c1=O (configuration not stated)	-10%	i
c1coc(-c2ncc[nH]2)c1	-21%	x
COc1cc2c3cc1Oc1cc(ccc1O)CC1c4c(cc(OC)c(O)c4Oc4ccc(cc4)CC3N(C)CC2)CC[N+]1(C)C (configuration not stated)	4%	-11%
COc1cc2c(cc1OC)CN(CC(=O)Nc1ccc3c(c1)OC(F)(F)O3)CC2	2%	-14%
Cc1ccc2nc3c(c(C(=O)O)c2c1)CCC3	-5%	i
CCCNC(=O)C1CC(=O)N(c2ccc(OCC(=O)Nc3cc(C)cc(C)c3)cc2)C1 (configuration not stated)	-9%	-3%
CCOc1ccc(NC(=O)CN(C)C(=O)CCNC(=O)c2ccc(Br)cc2)cc1OCC	-21%	-25%
CCN1CCN(C(=O)C2CCN(C(=O)c3cc4sccc4n3CC)CC2)CC1	-3%	i
CC(=O)Nc1ccc(S(=O)(=O)N2CCSC2)cc1	-5%	i
Nc1ccccc1SCC(=O)Nc1ccc(N2CCOCC2)cc1	-12%	i
COc1ccc(CNC(=O)c2cc3c(=O)n4cccc(C)c4nc3s2)cc1	2%	-7%
CCc1ccc(-c2nc(CS(=O)CC(=O)NCc3ccc(F)cc3)c(C)o2)cc1 (configuration not stated)	-5%	-2%

No new results follow: entries from further up.
SMILES	VACV Venus inh	VACV mCherry inh
Cc1ccc(C)c(S(=O)(=O)N2CCN(C(=O)C3CCN(C(=O)c4ccc(F)cc4)CC3)CC2)c1	-28%	-13%
CC(C)c1ccc(-c2nnc3n(CCc4ccccc4)c(=O)c4ccccc4n23)cc1	-9%	-26%
CC(C)NS(=O)(=O)c1ccc(CCC(=O)Nc2ccc3c(c2)OCCO3)cc1	-7%	-13%
